Assay outcomes (PubChem)
Choline anaer gr = growth inhibitors of anaerobic choline-fed gram-negatives, minimal medium, absorbance; Gram-negative bacterium anaerobic choline minimal medium; stronger effect = lower value; many inactives read as strong as hits in the columns shown; actives 0.2% (n = 55,000); calls only;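 active = growth z-score on choline under -2 at 7 or 20 h with little or no fall on glycerol, limits in tiers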;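 note: stock transfer was 300 nL into about 50 µL; the organism is E. coli; final concentration not given here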
Choline anaer gr early = further read-out of Choline anaer gr, marked with its call; z-score; measured here: choline growth z-score, timepoint 1;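 score of optical density at 7 h as mean of two plates; lower means less growth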
* hit, by the source's call; i = inactive; & = joins results of further samples.

SMILES	Choline anaer gr	Choline anaer gr early
CCN(CC)c1cc(Nc2ccc(NS(=O)(=O)c3ccc(F)cc3)cc2)nc(C)n1	i	-1
COc1cc(OC)cc(C(=O)N2CC(OCc3ccc(F)cc3)C2)c1	i	0.6
Cc1nc(OCC(=O)NCCc2c(C)noc2C)c2c(-c3ccc(F)cc3)noc2n1	i	0.86
O=C(Nc1cccc(F)c1)N1CCN(Cc2nc3cccnc3n2-c2cccc(F)c2)CC1	i	-1.2
Cc1ccc(Cn2nc(C)c(NC(=O)c3cnn4c(C(F)F)cc(-c5ccccc5)nc34)c2C)cc1	i	-0.52
CN(C)C(=O)c1ccc2c(c1)N(CC(=O)NCc1ccc3c(c1)OCO3)C(=O)CS2	i	-0.7
COC(=O)c1cccc(NC(=O)c2c(-c3ccccc3Cl)noc2C)c1	i	0.2
Cc1nn(-c2ccc3nncn3n2)c(C)c1CCC(=O)NC1CCCC1	i	1.5
Cc1nn2c(NCCN3CCOCC3)cc(C(C)(C)C)nc2c1-c1ccc(F)cc1	i	1.4
CCC(=O)Nc1cccc(-c2noc(C3CCCN(C(=O)Cc4ccc(C)cc4)C3)n2)c1 (stereo not given)	i	-1.1
CC(=O)OC(C)C[N+](C)(C)C (stereo not given)	i	0.64&0.89
CCOC(=O)C1=C(CN2CCn3cccc3C2C)NC(=O)NC1c1ccc(Cl)cc1 (stereo not given)	i	-0.16
Cc1ccc2[nH]c(=O)c(-c3noc(CCCC(=O)NCC4CCCO4)n3)cc2c1 (stereo not given)	i	-0.19
Cc1nc2nc3c(c(N4CCN(Cc5ccc6c(c5)OCO6)CC4)n2n1)CCCC3	i	0.24
CCCCn1c(C)c(C)c2c1ncn1nc(Cc3ccccc3)nc21	i	2.9
CCc1ccc(C2=C(C)C(=O)N(CC(=O)Nc3c(F)cc(F)cc3Br)S2(=O)=O)cc1	i	0
Cc1ccccc1C(=O)Nc1ccc2c(c1)CCC(=O)N2C	i	-0.77
O=C(CSc1nnc2ccc(C(=O)Nc3cccc(F)c3)cn12)Nc1ccc2c(c1)OCCO2	i	-0.75
CCCCCSc1nc2ccccc2[nH]1	i	-0.12
CCn1nc(C)c2c1c(=O)n(Cc1ccccc1)c(=O)n2Cc1c(F)cccc1Cl	i	1.4
Cn1c(=O)c2c(C3C(=O)Nc4ccccc43)c(-c3ccccc3Cl)[nH]c2n(C)c1=O (stereo not given)	i	-0.01
O=S(=O)(NCCc1n[nH]c(Cc2cccc(F)c2)n1)c1ccccc1	i	-0.15
CC1CC(=O)Nc2ccccc2N1C(=O)c1ccc(F)cc1 (stereo not given)	i	0.22
O=C(Nc1nccs1)c1nc(SCc2ccccc2)ncc1Sc1ccccc1	i	1.7
COc1ccc(NC(=O)Cn2cccc2-c2nnc(C)o2)cc1	i	-2
Other entries
SMILES	Choline anaer gr	Choline anaer gr early
COc1ccc(NC(=O)c2nnc(C3CCN(C(=O)Nc4cccc(OC)c4)CC3)s2)cc1	i	0.08
O=C(NC1CCCCC1)c1cccc(Nc2ncc(-c3ccc(F)cc3)cn2)c1	i	-0.28
CC1Cc2cc(S(=O)(=O)N(C)CC(=O)Nc3ccccc3Cl)ccc2N1C(=O)C1CC1 (stereo not given)	i	-0.03
CCc1ccc(S(=O)(=O)c2cnc(N3CCN(c4ccccc4)CC3)nc2N)cc1	i	0.59
O=c1c2ccccc2n2c(SCc3ccc(F)cc3)nnc2n1Cc1ccccc1	i	-0.3
COc1cc2c(cc1OC)C1C(C(=O)N3CCC(Cc4ccccc4)CC3)c3ccccc3C(=O)N1CC2 (stereo not given)	i	1.4
Cc1c(N2CCN(C(=O)CC3CCCC3)CC2)c(=O)n(C)c(=O)n1-c1ccccc1	i	-0.32
CCc1ccc(-c2n[nH]c(=O)c3c2CCCC3)cc1S(=O)(=O)N1CCN(c2ccccc2)CC1	i	0.9
Cc1cc(C(=O)N2CCCC2c2cc(C)no2)on1 (stereo not given)	i	-1.6
CN1CCCn2nc(C3CCN(C(=O)Nc4ccc5c(c4)OCCO5)CC3)cc2C1=O	i	-1.3
C=CCN(CC=C)C(=O)Cn1c(C)c(Cc2ccccc2)c(=O)n2nc(-c3ccccc3)nc12	i	0.96
O=C(O)COc1ccc2cc(-c3cc(F)cc(F)c3)c(=O)oc2c1	i	0.68
CCn1cnc(C(=O)NC)c1C(=O)NC	i	-2.7
COC(=O)c1cc(S(=O)(=O)Nc2cccc(OC)c2)c(C)n1C	i	0.32
O=C(Cc1cccs1)N1CCC(Oc2cc(N3CCCC3)ncn2)C1 (stereo not given)	i	1.2
COc1ccccc1-c1csc(-c2nnn(-c3ccc(C)c(C)c3)c2N)n1	i	0.93
Cc1cc(NS(=O)(=O)c2cc(-c3cc(C(F)(F)F)on3)cs2)ccc1Br	i	1.3
N[C@@H](CCC(=O)N[C@H](CSN=O)C(=O)NCC(=O)O)C(=O)O	i	0.13
Cc1ccc(-c2noc(-c3cc(-c4ccc(C(C)C)cc4)n[nH]3)n2)cc1	i	1.2
CCSc1nc2n(n1)C(c1ccc(NC(C)=O)cc1)C(C(=O)Nc1ccccc1C)=C(C)N2 (stereo not given)	i	1.4
COc1cccc(-c2noc(-c3cc(N4CCSCC4)nc4ccccc34)n2)c1OC	i	0.44
OC(CCCN1CCCCC1)(c1ccccc1)c1ccccc1	i	0.58&0.49&0
Cc1ccc2c(=O)c(-c3nc(-c4ccc(Cl)cc4)no3)cn(Cc3ccc(F)cc3)c2n1	i	0.57
CCN(CC)C(=O)CN1CCN(c2cc(C(=O)O)c3cc(NC(=O)C4CC4)ccc3n2)CC1	i	0.32
Oc1ccccc1C1=Nc2ccccc2N=C(c2ccc(Cl)cc2)C1	i	0.19

Fetched by structure from above, four records:
SMILES	Choline anaer gr	Choline anaer gr early
C=CCN(CC=C)C(=O)Cn1c(C)c(Cc2ccccc2)c(=O)n2nc(-c3ccccc3)nc12	i	0.96
CCSc1nc2n(n1)C(c1ccc(NC(C)=O)cc1)C(C(=O)Nc1ccccc1C)=C(C)N2 (stereo not given)	i	1.4
O=C(NC1CCCCC1)c1cccc(Nc2ncc(-c3ccc(F)cc3)cn2)c1	i	-0.28
OC(CCCN1CCCCC1)(c1ccccc1)c1ccccc1	i	0.58&0.49&0

(more compounds)
SMILES	Choline anaer gr	Choline anaer gr early
COC(=O)Cc1c(C)[nH]n(-c2nc(-c3ccccc3)cs2)c1=O	i	0.33
O=C(NC1CC1)C1CCCN(C(=O)c2cc(-c3cccnc3)n[nH]2)C1 (stereo not given)	i	0.63
COc1ccc(Br)cc1C1Nc2ccc(C)cc2[C@H]2OCCC[C@@H]12 (stereo not given in full)	i	1.5
CC(C)Nc1ncccn1	i	-0.16
Cc1c(C)n(-c2ccccc2)c2nc(C(=O)Nc3ccc(F)c(F)c3)nc(N3CCCC3)c12	i	0.44
COC(=O)c1sc2ccccc2c1S(N)(=O)=O	i	-1.6
Cc1cccc(C)c1NS(=O)(=O)c1c(C)sc(C)c1-c1cc(C(F)(F)F)on1	i	-2.5
O=C(Cc1ccsc1)N1CCC(Nc2ncnc3c2CCC3)C1 (stereo not given)	i	0.88
Cc1ccc2ncc(NC(=O)c3ccccc3)c(=O)n2c1	i	0.83
CCC(=O)N1CCc2cc(S(=O)(=O)CCC(=O)N3CCC(Cc4ccccc4)CC3)ccc21	i	-1.1
O=C(Cc1ccc(NC2=NC3CS(=O)(=O)CC3S2)cc1)NCCC1=CCCCC1 (stereo not given)	i	0.55
CCS(=O)(=O)Nc1cnc(N2CCNCC2)c(C(=O)NC(C)C)c1	i	0.19
O=c1cc(N2CCN(S(=O)(=O)Cc3ccccc3)CC2)nc2sc(-c3ccccc3)nn12	i	-0.73
O=C(Nc1ccc2c(c1)OCO2)Nc1cccn2c(C3CCC3)nnc12	i	-0.05
O=C(Nc1ccc2ccc(=O)oc2c1)C1=Cc2cc(Br)ccc2OC=C1	i	-1.7
Cc1cc(C)c2c(-n3cccc3)nn(CCCC(=O)Nc3cc(Cl)ccc3C)c2n1	i	1.2
Cc1sc(C)c(S(=O)(=O)N2CC=C(c3ccccc3)CC2)c1-c1ccno1	i	3.1
O=C(c1cc(-c2ccc(F)cc2)no1)N1CCCC1c1ccc(F)cc1 (stereo not given)	i	0.66
Cc1csc(-c2cc(S(=O)(=O)NCCCc3ccccc3)c(C)s2)n1	i	0.98
Cc1nc(-c2ccc(N3CCN(C(=O)NC4CCCCC4)CC3)cc2)no1	i	0.5
O=S(=O)(c1ccc(-c2nnc(C3CC3)o2)o1)N1CCN(c2ccccn2)CC1	i	-0.04
O=C(O)CCC/C=C\C[C@@H]1[C@@H](/C=C/[C@@H](O)COc2ccccc2)[C@H](O)C[C@@H]1O	i	0.52
O=C(c1ccc(S(=O)(=O)c2ccccc2)nc1)N1CCN(C2CCCCC2)CC1	i	0.51
CCC(=O)Nc1ccccc1SCc1cc(=O)n2cc(Cl)ccc2n1	i	0.14
O=C(CN1C(=O)CCCc2ccccc21)NCCCc1ccccc1	i	0.37

Reformatted: entries from further up.
Under each structure: Choline anaer gr, Choline anaer gr early
- O=c1cc(N2CCN(S(=O)(=O)Cc3ccccc3)CC2)nc2sc(-c3ccccc3)nn12
 : i, -0.73
- O=C(Nc1ccc2c(c1)OCO2)Nc1cccn2c(C3CCC3)nnc12
 : i, -0.05
- O=C(Nc1ccc2ccc(=O)oc2c1)C1=Cc2cc(Br)ccc2OC=C1
 : i, -1.7
- Cc1cc(C)c2c(-n3cccc3)nn(CCCC(=O)Nc3cc(Cl)ccc3C)c2n1
 : i, 1.2
- Cc1sc(C)c(S(=O)(=O)N2CC=C(c3ccccc3)CC2)c1-c1ccno1
 : i, 3.1
- O=C(c1cc(-c2ccc(F)cc2)no1)N1CCCC1c1ccc(F)cc1 (stereo not given)
 : i, 0.66

New compounds follow.
SMILES	Choline anaer gr	Choline anaer gr early
CCNS(=O)(=O)c1cc(-c2ccno2)oc1C	i	-1.4
Cc1cccc(-c2noc(-c3cccnc3N3CCC(C(=O)NCc4cc(F)cc(F)c4)CC3)n2)c1	i	-0.14
O=C(Nc1ccccc1)Nc1cccc(-c2noc(-c3cc4ccccc4[nH]3)n2)c1	i	0.11
O=C(Nc1sc2c(c1C(=O)NCC1CCCO1)CCC2)c1cc(-c2ccc(Cl)cc2)on1 (stereo not given)	i	-0.44
Cc1ccccc1C(=O)Nc1ccc2nc(N3CCCN(C)CC3)cc(C(=O)O)c2c1	i	0
Cc1cc(Cn2cnc3c2C[C@@H](C(=O)O)N(C(=O)C(c2ccccc2)c2ccccc2)C3)ccc1N	i	0.19
COc1ccccc1C(=O)Nc1cc2c(cc1S(=O)(=O)C1CCCCC1)n(C)c(=O)c(=O)n2C	i	-0.66
CCCNC(=O)NCCc1nc2cccnc2n1-c1ccccc1	i	0.19
CCCCC[C@H](O)/C=C/[C@@H]1[C@@H](C/C=C\CCCCO)[C@@H](O)C[C@H]1O	i	-0.7
Cc1nc(-c2cccc(C(=O)NCc3cccnc3)c2)no1	i	-0.25
Cc1[nH]c(C(=O)Nc2cccc(Br)c2)c(C)c1S(=O)(=O)N1CCCC1	i	0.23
CCOc1ccc(S(=O)(=O)Nc2cc(C(=O)O)cnc2N2CCC(Cc3ccccc3)CC2)cc1	i	-0.41
CCn1c(C(=O)N2CCCC2)cc2c(=O)oc3ccccc3c21	i	-1.4
CCCC(C(=O)OCCN(CC)CC)(c1ccccc1)c1ccccc1	i	0.58&-0.34
Cc1cc(C)n(-c2nc3ccccc3nc2NCCc2ccccc2)n1	i	1.7
CCSc1nnc(-c2nn(C)c3c2CN(S(=O)(=O)c2ccc(C(C)C)cc2)CC3)n1C	i	-1.6
COc1cc(C2Nc3ccc(F)cc3[C@H]3OCC[C@@H]23)cc(Cl)c1OC (stereo not given in full)	i	-0.91
Cc1cc(=O)c(C(=O)N[C@@H](C(=O)N[C@@H]2C(=O)N3C(C(=O)O)=C(CSc4nnnn4C)CSC23)c2ccc(O)cc2)c[nH]1 (stereo not given in full)	i	-0.72
O=C(C1CCCC1)N1CC(OCc2ccc(F)cc2Cl)C1	i	-0.89
CC1CCN(C(=O)CSc2c3c(nc4ccccc24)CCC3)CC1	i	-0.06
Cc1ccc2nc(NC(=O)Cn3c(=O)n(C(C)C)c4ccc(-c5noc(C)n5)cc43)sc2c1	i	-0.75
CN1C(=O)c2cc(C(=O)NCCc3ccc(Cl)cc3)nn2CC1(C)C(=O)NC1CCCC1 (stereo not given)	i	-1.1
CCCN1C(=O)CC(c2ccccc2)=Nc2ccccc21	i	-0.28
Cc1cccc(CSc2nc3cccnc3n2Cc2ccccc2F)c1	i	1
O=S(=O)(NCc1cccn1Cc1ccccc1)c1ccccc1	i	0.65
Next records follow.
SMILES	Choline anaer gr	Choline anaer gr early
C=CCn1c(=O)c(=O)n(Cc2ccc(C(=O)N3CCN(c4ncccn4)CC3)cc2)c2ccccc21	i	-0.73
CCOC(=O)c1cc(C)n(CC2CCC(C(=O)Nc3ccccc3OC)CC2)c1C (stereo not given)	i	0.09
O=C1CC(c2ccsc2)c2cnn(-c3nc4ccccc4s3)c2N1 (stereo not given)	i	0.91
Cc1ccc(C2Sc3ccccc3NC3=C2C(=O)c2ccccc23)cc1 (stereo not given)	i	-1.9
COC(=O)c1nc2ccccc2nc1N1CCN(c2ccc(OC)cc2)CC1	i	0.34
COc1ccc2nc3oc(C(=O)NCc4ccc5c(c4)OCO5)cc3cc2c1	i	0.62
CN(C)c1ccc(C(CNS(=O)(=O)CCc2ccccc2)N2CCN(c3ccccc3)CC2)cc1 (stereo not given)	i	1.3
O=C(Nc1ccc2c(c1)OCCO2)c1ccc(Nc2ccnc(-c3ccc(F)cc3)n2)cc1	i	0.15

One compound at a time (already shown). Order of screens: Choline anaer gr	Choline anaer gr early
Shown for O=C(Nc1ccc2c(c1)OCCO2)c1ccc(Nc2ccnc(-c3ccc(F)cc3)n2)cc1 → i	0.15
Shown for Cc1ccc(C2Sc3ccccc3NC3=C2C(=O)c2ccccc23)cc1 (stereo not given) → i	-1.9
Shown for COC(=O)c1nc2ccccc2nc1N1CCN(c2ccc(OC)cc2)CC1 → i	0.34

This is a subset; rates above refer to the full screens.
